Compound activity from PubChem BioAssay.
WNV protease inh – inhibitors of WNV NS2B-NS3 protease, primary screen, biochemical, fluorogenic substrate | Genome polyprotein (West Nile virus), P06935 | fluorogenic substrate Ex360/Em465; stronger effect = lower value | z-score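 (tested at a level between 10 and 100 µM)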 | actives 0.18% (n = 65,000);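 active = z-score at -3 or under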;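 also: score is relative to mean and spread of the compound wells of a plate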
Target sequence (P06935 1371-1501 limits assumed): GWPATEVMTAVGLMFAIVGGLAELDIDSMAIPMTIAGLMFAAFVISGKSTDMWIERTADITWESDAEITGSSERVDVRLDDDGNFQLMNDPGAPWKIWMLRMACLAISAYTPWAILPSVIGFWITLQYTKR
Target sequence (P06935 1502-1679 limits assumed): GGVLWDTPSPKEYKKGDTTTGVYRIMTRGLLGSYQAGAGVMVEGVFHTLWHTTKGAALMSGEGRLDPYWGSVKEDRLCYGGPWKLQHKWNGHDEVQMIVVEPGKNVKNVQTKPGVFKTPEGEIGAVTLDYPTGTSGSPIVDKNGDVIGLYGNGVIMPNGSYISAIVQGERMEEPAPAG
Hsc70 – Hsc70 inhibitors, probe displacement, primary screen, biochemical, fluorescence polarization (AID 568) | Heat shock cognate 71 kDa protein (Homo sapiens) | Hsc70 fluorescence polarization, probe displacement; higher % means a stronger effect; strong numbers were not always called active | displacement, % at 20 µM; hits with a dose series show IC50 in µM | 83,000 tested, under 10 active;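 active = displacement above 50% without optical interference and an IC50 on retest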;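 also: ATPase domain with a fluorescein-tagged ATP probe; 0% = vehicle and 100% = excess ADP; read after one hour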
MT1-MMP reporter – inhibitors of MT1-MMP promoter transcription, cell-based, luciferase reporter, luminescence (AID 618). MT1-MMP promoter luciferase reporter cells, luminescence. actives 0.62% (n = 87,000). calls from a first round at 10 µM; hits with a dose series show EC50 in µM;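 active = over half of the reporter light lost at 10 µM or EC50 under 50 µM; inactive = the rest and hits that failed the dose series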;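 also: actives suppress MT1-MMP promoter-driven transcription so potencies describe inhibitors; HT1080 fibrosarcoma cells; overnight exposure; toxic or luciferase-blocking compounds were not removed from the actives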
* marks the source's active call; other numbers are inactive results; i = inactive; x = not tested or not shown.

SMILES	WNV protease inh	Hsc70	MT1-MMP reporter
CCOC(=O)NC1(C(F)(F)F)C(=O)N(Cc2ccccc2)C2=C1C(=O)CC(C)(C)C2 (stereo unspecified)	x	1.3%	i
Cc1cc(CC(C)C)n(-c2nc3ccccc3c(=O)n2OCC(N)=O)n1	-0.64	1.8%	i
COc1ccc2[nH]c(=O)c(C(c3nnnn3C3CCCC3)N3CCN(Cc4ccc5c(c4)OCO5)CC3)cc2c1 (stereo unspecified)	x	1.2%	i
CCOC(=O)Nc1ccccc1N1C(=O)c2ccccc2C1=O	-0.23	0.8%	i
CCc1ccc(C(=O)NCC2COc3ccccc3O2)o1 (stereo unspecified)	-1	3.5%	i
CC(=O)c1ccc(OCCCN2CCCCC2)cc1	x	-7.2%	i
CCN1CCN(c2ncnc3c2oc2nc(C)c4c(c23)CC(C)(C)OC4)CC1	-0.58	1.4%	i
COc1ccc(CCNC(=O)C2CCN(S(C)(=O)=O)CC2)cc1OC	0.31	-5.5%	i
COc1ccc2c(c1)[nH]c1c(=O)n(CCc3cnc[nH]3)cnc12	0.01	-9.2%	i
N#CC(=C1CCCC1)c1nc(-c2ccc(Cl)cc2)cs1	x	-13%	i
COc1ccc(CCC(=O)NCCc2cn3c(C)csc3n2)cc1	0.16	-2.2%	i
Cc1nc2c(-c3ccccc3)c(C)nn2c(C)c1CC(=O)O	1.2	0.5%	i
COC(=O)c1oc2ccc(Br)cc2c1NC(=O)CN1CCN(C)CC1	-0.28	0.9%	i
O=C1c2ccccc2C(=O)N1CCSc1nncs1	-0.63	-8.8%	i
CC1(C)CC(=O)N(CC(=O)NCc2ccccc2)c2ccccc2S1(=O)=O	-0.45	3.9%	i
Cc1ccc(NC(=O)c2sc3nc4c(c(-c5ccco5)c3c2N)CCC4)cc1	x	0.1%	i
O=C(O)CC1CCC(=C(Cl)Cl)C1 (stereo unspecified)	-0.83	1.8%	i
O=C(CN1C(=O)c2cccc3cccc1c23)NCC1CCCO1 (stereo unspecified)	0.43	0.0%	i
Cc1ccnc2ccc(-c3nc4ccccc4o3)cc12	0.45	2.8%	i
CCCN(CCC)C(=O)c1ccccc1C(=O)N(CCC)CCC	x	-2.4%	i
COc1cc(C(=O)Nc2ccc(-n3cnnn3)c(C)c2)cc(OC)c1OC	-0.23	2.9%	i
COC(=O)C1=C(C)N(C)C(C)=C(C(=O)OC)C1c1ccc(F)c(Br)c1	-1.2	-1.8%	i
O=C(CCSCCc1ccccn1)Nc1ccccn1	0.09	-6.6%	i
CCOC(=O)N1CCN(C(=O)CN(c2cccc(OC)c2)S(C)(=O)=O)CC1	x	-1.6%	i
CCCC(=O)Nc1ccc2oc(-c3ccc(OC)c(Br)c3)nc2c1	-0.18	-10%	i
Cc1ccc(N2C(=O)c3oc4ccccc4c(=O)c3C2c2cccnc2)nc1 (stereo unspecified)	0.96	3.4%	i
CN(C)S(=O)(=O)c1cccc(C(=O)OCC(=O)N2c3ccccc3NC(=O)C2(C)C)c1	-0.57	105%	i
O=C(Nc1ccc(F)cc1)c1oc2ccccc2c1NC(=O)C1CCCC1	0.15	-9.0%	i
CCc1nnc(NC(=O)CSc2nnc(-c3ccccc3OC)n2-c2ccccc2)s1	-0.32	-3.8%	i
CC(C)OC(=O)CC(=O)CSc1nc2c(cc1C#N)CCCC2	-0.84	-2.7%	i
Oc1ccccc1Oc1ncc(Br)c(N2CCOCC2)n1	-0.58	3.9%	i
CCc1nc(NCC2CCCN2CC)c2nnn(Cc3ccccc3F)c2n1 (stereo unspecified)	0.47	-1.6%	i
O=C(O)COc1ccccc1C1C2C(=O)N(c3ccc(F)cc3)C(=O)C2ON1c1ccccc1 (stereo unspecified)	0.17	-7.1%	i
CC(=O)N(CCP(=O)(c1ccccc1)c1ccccc1)Cc1ccco1	-0.38	-0.8%	i
CC(=O)Nc1cc(C(=O)N2CCOCC2)ccc1S(=O)(=O)c1ccc(C)cc1	0.8	3.6%	i
O=C(Nc1cnc2ccccn2c1=O)c1ccc(F)cc1	-0.65	-7.9%	i
CC(C)c1cc(C(=O)NCc2ccco2)no1	0.07	3.0%	i
CCC(=O)NCCc1nc2cc(NC(=O)c3ccc(OC)cc3)ccc2n1C	x	-1.7%	i
COc1ccc(C2NC(=O)NC(C)=C2C(C)=O)cc1 (stereo unspecified)	x	-3.3%	i
Cc1ccccc1-c1nc(CS(=O)(=O)CC(=O)N(C)C2CCCCC2)c(C)o1	0.13	3.4%	i
CCOC(=O)C1CCCN(c2c(NCc3ccco3)c(=O)c2=O)C1 (stereo unspecified)	-1	-5.6%	i
O=C(c1ccco1)N1CCN(CC2CC3C=CC2C3)CC1 (stereo unspecified)	0.33	-0.1%	i
Cc1ccnc(N(C(=O)c2cccs2)C(=O)c2cccs2)c1	-0.86	-0.7%	i
CN(CC(=O)NC1CCCCC1)S(=O)(=O)c1ccc(Cl)cc1	2.3	-0.1%	i
O=C(O)CCSCc1ccccc1F	0.32	3.9%	i
CCCOc1ccc(C(=O)N2CCN(c3ccc(NC(=O)CC)cc3Cl)CC2)cc1	-0.21	-3.1%	i
CC(=O)N1CCC(=O)N(C(C)C)c2ccccc21	-0.95	2.5%	i
CCOC(=O)C(CC)Sc1ncnc2nc[nH]c12 (stereo unspecified)	-0.14	-2.1%	i
Cc1ccc(S(=O)(=O)Cn2nnnc2C(c2ccccn2)N2CCN(c3ccccc3)CC2)cc1 (stereo unspecified)	0.14	-11%	i
O=C(Nc1cccnc1)c1cccc(S(=O)(=O)N2CCOCC2)c1	1.4	-3.8%	i
C=C(C)C1Cc2c(C)nn(-c3ccccn3)c2C1 (stereo unspecified)	x	3.0%	i
CC(=O)C1=C(C)NC(SCC(=O)c2ccc(F)cc2)=C(C#N)C1c1ccco1 (stereo unspecified)	-1.1	-2.3%	i
Cc1cc(NC(=O)CSc2ccc3c(c2)OCCO3)no1	0.44	1.8%	i
CCOc1ccc(NC(=O)N2CC=C(n3c(=O)[nH]c4ccccc43)CC2)cc1	-0.21	0.9%	i
COc1cc2cc(CN(C(=O)Nc3ccccc3)C3CCCC3)c(=O)[nH]c2cc1OC	0.52	1.7%	i
CCOc1ccc(C2CC(c3ccc(Br)cc3)Nc3nc(N)nn32)cc1 (stereo unspecified)	-1.8	1.1%	i
CCOc1nc(C)ccc1-c1noc(-c2ccncc2)n1	-0.59	0.8%	i
O=C(CN1CCOc2ccccc21)NCc1ccco1	0.33	-1.8%	i
CC(C)n1c(SCC(=O)Nc2ccccc2N2CCCCC2)nc2c1c(=O)n(C)c(=O)n2C	0.48	-1.9%	i
Cc1cc(C)n(Cc2ccccc2Cl)n1	0.24	-0.6%	i
(cont.)
SMILES	WNV protease inh	Hsc70	MT1-MMP reporter
O=C(COC(=O)CC1CCCC1)Nc1cc2c(cc1Cl)C(=O)c1ccccc1C2=O	x	-3.3%	i
O=C1CC(C2CCCO2)C(=O)N1c1ccccc1 (stereo unspecified)	x	2.0%	i
O=C1CCCN1c1cccc(Br)c1	x	1.1%	i
COC(=O)c1ccccc1NC(=O)N1CCN(C/C=C/c2ccccc2)CC1	-0.24	-0.5%	i
COc1ccc(C2CC(O)(C(C)(C)O)NO2)cc1 (stereo unspecified)	-0.04	7.1%	i
COc1ccc(C2(O)CCN(CCCCOc3ccccc3)CC2)cc1	0.46	5.9%	i
O=C(Cc1cccs1)NCc1cccs1	-1.3	0.9%	i
COCCNC(=O)CN1C(=O)COc2ccc(Cl)cc21	-0.8	4.1%	i
OCCN1CCN(c2ncnc3ccc(Br)cc23)CC1	-0.77	1.6%	i
CCn1c(COc2ccccc2C)nnc1SCC(=O)CC(=O)Nc1ccccc1	1.3	2.2%	i
Cc1cc(-n2c(=O)c(C#N)cc3c(=O)n4cccc(C)c4nc32)no1	0.99	0.7%	i
O=C(c1cccc(F)c1)N1CCN(C(=O)c2cc3ncc(Br)cn3n2)CC1	x	1.6%	i
CCC(Sc1nc(=O)cc(N)n1-c1ccccc1)C(=O)Nc1cc(C)on1 (stereo unspecified)	2.2	-3.2%	i
CN(C)CCOc1ccccc1C(C)(C)C	x	-1.2%	i
Cc1nnc(NC(=O)Nc2cccc(Cl)c2)s1	0.34	6.1%	i
O=C(NC1CCCCC1)NC1CC2CCCC(C1)N2C1CCCC1 (stereo unspecified)	x	1.7%	i
COC(=O)c1cn(C(=O)OC)c2ccccc12	-1.3	3.3%	i
Cc1nn(C(=O)c2cccnc2)c(C)c1C	-0.13	4.7%	i
CCCCn1c(=O)c(C(=O)OCC)c(O)c2ccccc21	0.84	8.8%	i
Cc1ccc(C)n1NC(=O)c1ccccc1Cl	0.08	-4.8%	i
COc1ccc(-n2c(Cc3cc(=O)[nH]c(=O)[nH]3)nnc2SCc2ccccc2)cc1	-1.9	3.2%	i
COc1ccc(CNC(=O)CSCc2cnn(-c3ccccc3)c2-n2cccc2)cc1	x	2.2%	i
C=CCn1c(N)c(C(=O)NCC2CCCO2)c2nc3ccccc3nc21 (stereo unspecified)	0.92	-5.0%	i
C/C(=C\C(=O)c1ccc(Br)cc1)NCc1ccc(C)cc1	x	-7.8%	i
CCCC(=O)n1nc(-c2ccco2)nc1N	x	4.1%	i
COc1ccc(OCC(O)Cn2c(Br)nc3c2c(=O)[nH]c(=O)n3C)cc1 (stereo unspecified)	-0.05	4.5%	i
COc1ccc(NC(=O)C2CC(=O)N(c3cccc(C)c3C)C2)cc1 (stereo unspecified)	1.3	0.7%	i
CN(C)c1ccc(P(=O)(OCc2ccccc2)C(O)c2cccnc2)cc1 (stereo unspecified)	0.06	-4.5%	i
Cc1sc(NC(=O)c2ccco2)c(C(c2ccncc2)N2CCOCC2)c1C (stereo unspecified)	-0.85	-3.0%	i
COC(=O)c1sc(NC(=O)c2ccoc2C)nc1C	-0.06	0.6%	i
C=CCOC(=O)C1=C(C)Nc2ncnn2C1c1cccs1 (stereo unspecified)	x	0.1%	i
COCCn1c(=O)[nH]c2cc(C(=O)NCC3CCCO3)ccc2c1=O (stereo unspecified)	-0.96	-4.5%	i
CCCCOc1ccc(CN2CCC(O)CC2)cc1	-0.0067	1.2%	i
CCN(CC)S(=O)(=O)c1ccccc1/C=N\O	0.36	4.7%	i
O=C(CN1C(=O)COc2ccccc21)N1CCN(c2ccccc2F)CC1	-1.8	-3.3%	i
CCOC(=O)CSc1n[nH]c(-c2ccco2)n1	0.39	1.5%	i

14 compounds from above, ordered by molecular weight, highest first.
SMILES	WNV protease inh	Hsc70	MT1-MMP reporter
COc1ccc(CNC(=O)CSCc2cnn(-c3ccccc3)c2-n2cccc2)cc1	x	2.2%	i
COc1ccc(-n2c(Cc3cc(=O)[nH]c(=O)[nH]3)nnc2SCc2ccccc2)cc1	-1.9	3.2%	i
Cc1sc(NC(=O)c2ccco2)c(C(c2ccncc2)N2CCOCC2)c1C (stereo unspecified)	-0.85	-3.0%	i
CN(C)c1ccc(P(=O)(OCc2ccccc2)C(O)c2cccnc2)cc1 (stereo unspecified)	0.06	-4.5%	i
O=C(CN1C(=O)COc2ccccc21)N1CCN(c2ccccc2F)CC1	-1.8	-3.3%	i
COCCn1c(=O)[nH]c2cc(C(=O)NCC3CCCO3)ccc2c1=O (stereo unspecified)	-0.96	-4.5%	i
C/C(=C\C(=O)c1ccc(Br)cc1)NCc1ccc(C)cc1	x	-7.8%	i
COc1ccc(NC(=O)C2CC(=O)N(c3cccc(C)c3C)C2)cc1 (stereo unspecified)	1.3	0.7%	i
C=CCOC(=O)C1=C(C)Nc2ncnn2C1c1cccs1 (stereo unspecified)	x	0.1%	i
COC(=O)c1sc(NC(=O)c2ccoc2C)nc1C	-0.06	0.6%	i
CCN(CC)S(=O)(=O)c1ccccc1/C=N\O	0.36	4.7%	i
CCOC(=O)CSc1n[nH]c(-c2ccco2)n1	0.39	1.5%	i
Cc1ccc(C)n1NC(=O)c1ccccc1Cl	0.08	-4.8%	i
CCCC(=O)n1nc(-c2ccco2)nc1N	x	4.1%	i

Results in MT1-MMP reporter and Hsc70 (two entries from above):
compound,MT1-MMP reporter,Hsc70
CCCOc1ccc(C(=O)N2CCN(c3ccc(NC(=O)CC)cc3Cl)CC2)cc1,i,-3.1%
CC(=O)N1CCC(=O)N(C(C)C)c2ccccc21,i,2.5%

Other results follow:
SMILES	WNV protease inh	Hsc70	MT1-MMP reporter
Cc1onc(-c2c(F)cccc2Cl)c1C(=O)Nc1nnc(C2CC2)s1	-0.47	-7.2%	i
O=C(O)c1ccc(NS(=O)(=O)c2cc(C(=O)O)ccc2Br)cc1	1.8	2.0%	i
O=C(NCc1ccccc1Cl)C1CCCN(S(=O)(=O)c2cnc[nH]2)C1 (stereo unspecified)	-0.07	4.9%	i
O=C(CSc1nc2ccccc2o1)N1CCN(c2ccccc2)CC1	-0.71	-3.9%	i
O=C(COc1ccc(S(=O)(=O)NCc2ccccc2)cc1)N1CCOCC1	x	0.4%	i
COc1cccc(-c2nnc(SCC(=O)Nc3ccc(OC)c(OC)c3)n2N)c1	0.21	-4.6%	i
CCc1cc2c(=O)c(Oc3ccccc3)c(C)oc2cc1O	-0.34	-4.6%	i
COc1ccc(N=Cc2nc(-c3ccco3)oc2O)cc1	x	-1.5%	i
CN1CCN(c2nc(-c3ccco3)cc(C(F)(F)F)n2)CC1	x	3.1%	i
CCOc1ccc(C2CC(c3ccc(OC)c(OC)c3)n3nc(N)nc3N2)cc1 (stereo unspecified)	1.1	7.9%	i
O=C(CCCN1C(=O)CSc2ncccc21)N1CCN(Cc2ccccc2)CC1	-0.23	5.4%	i
CC(C)Oc1ccc(Cc2cnc(N)nc2N)cc1	x	-0.6%	i
CC(C)c1nc(=S)c2ccccc2[nH]1	-0.1	0.4%	i
CC(=O)N1CC2(C)CN(C(C)=O)CC(C)(C1)C2=O	-0.17	0.3%	i
